# Bioassay records deposited in PubChem by several laboratories.
# GALR2 ag = activates the human galanin receptor 2 | GALR2-expressing cells, agonist activation read-out | hit rate 0.48% among 140,000 | O43603 | AID 803 | activation, %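 (tested at 5 µM)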;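 active = above mean plus 3 SD of all compounds, about 5% in these data, not always enough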;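 also: 0% = vehicle buffer wells and 100% = reference agonist at full effect; tested in CHO reporter cells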
# Target sequence (O43603 whole entry, looked up): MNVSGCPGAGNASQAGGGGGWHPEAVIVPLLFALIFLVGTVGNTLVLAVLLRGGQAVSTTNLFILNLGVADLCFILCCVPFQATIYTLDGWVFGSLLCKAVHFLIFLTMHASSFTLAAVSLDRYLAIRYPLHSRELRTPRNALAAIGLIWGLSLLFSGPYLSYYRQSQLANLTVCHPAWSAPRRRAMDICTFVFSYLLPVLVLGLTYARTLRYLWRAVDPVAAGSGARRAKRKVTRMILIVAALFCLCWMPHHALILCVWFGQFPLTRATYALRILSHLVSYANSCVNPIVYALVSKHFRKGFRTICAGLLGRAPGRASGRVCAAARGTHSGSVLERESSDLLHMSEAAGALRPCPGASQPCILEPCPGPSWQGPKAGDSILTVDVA
# PKD1 kinase inh = inhibitors of human PKD1 kinase; PKD1 kinase fluorescence polarization assay; inhibition, %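 (about 10 µM by stock and volumes)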; hit rate 0.056% among 200,000; AID 797;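 active = inhibition of 50% or more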;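 also: controls were vehicle for no effect and a reference inhibitor for full effect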
# Insulin prom inh = TRM-6 insulin promoter activity inhibition; TRM-6 cells (human fetal islet line), insulin promoter-eGFP reporter, imaging; reporter expression induced with tamoxifen; inhibition, % at 2 µM; hit rate 0.9% among 130,000;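 active = inhibition above the mean plus 3 SD, with well images judged a real hit on visual review, cut at about 60% in these data, passing the limit was not always enough; inconclusive = inhibition over the cutoff but images rejected on review; inactive = inhibition not above the cutoff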
# RGS16-Gao HTS = regulators of human RGS16-Galphao interaction; O15492+P09471; bead-based flow cytometry RGS16-Galphao binding, fluorescence; actives lie on both sides; binding response (% of control), % at 10 µM; hit rate 0.38% among 220,000;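 active = below 25% or above 175%, edge rows of some plates excepted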;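 also: Galphao activated by GDP with aluminum fluoride before binding; 100% = wells without compound and 0% = beads without RGS; some results beyond the cut were filed as inactive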
# Target sequence (O15492 whole entry, looked up): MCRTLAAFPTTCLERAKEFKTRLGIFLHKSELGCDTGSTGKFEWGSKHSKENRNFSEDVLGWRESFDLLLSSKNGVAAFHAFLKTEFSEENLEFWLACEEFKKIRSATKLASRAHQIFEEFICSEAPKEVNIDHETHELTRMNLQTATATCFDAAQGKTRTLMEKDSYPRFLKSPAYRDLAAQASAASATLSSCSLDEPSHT
# Target sequence (P09471 whole entry, looked up): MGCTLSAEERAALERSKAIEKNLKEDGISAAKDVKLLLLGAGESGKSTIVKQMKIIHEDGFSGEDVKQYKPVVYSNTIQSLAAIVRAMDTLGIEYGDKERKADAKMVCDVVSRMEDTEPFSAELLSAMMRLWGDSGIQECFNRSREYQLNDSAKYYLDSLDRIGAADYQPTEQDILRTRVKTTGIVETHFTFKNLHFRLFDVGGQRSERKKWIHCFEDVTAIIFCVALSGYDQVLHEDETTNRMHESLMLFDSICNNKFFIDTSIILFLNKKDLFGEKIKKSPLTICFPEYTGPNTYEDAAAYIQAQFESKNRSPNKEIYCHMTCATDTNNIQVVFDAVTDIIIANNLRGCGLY
# HSV augment = HSV replication enhancement; HSV replication augmentation in cells, fold increase; maximum fold increase; hit rate 0.005% among 220,000;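 active = peak rise of 1.5-fold or more in the series; inconclusive = self-fluorescent or not available for retest; tested in PC3 cells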;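 also: first round at 10 µM; read as green reporter fluorescence; hits show the peak of a series up to 25 µM; 1 = signal of infected wells without compound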
# Insulin prom inh cell count = recorded beside Insulin prom inh, whose call it bears; normalized cell count, %; measured here: cell count, toxicity; reference of the scale not given here;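 cells exposed to compound for 48 h; stained nuclei by imaging scaled within each plate; lower means fewer cells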
# HSV augment primary fold = further read-out of HSV augment, marked with its call; fold increase; compound at 10 µM; measured here: primary screen fold increase 10 uM; tested in PC3 cells;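 GFP signal in the first replicate; 1 = infected wells without compound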
# * hit, by the source's call; i = inactive; u = inconclusive; x = not tested or not shown; & = joins results of further samples.
SMILES,GALR2 ag,PKD1 kinase inh,Insulin prom inh,Insulin prom inh cell count,RGS16-Gao HTS,HSV augment,HSV augment primary fold
COc1cccc(/C=N/n2c(N)c(S(=O)(=O)c3cccs3)c3nc4ccccc4nc32)c1OC,0.7,-10,2,46,39,i,0.65
COc1ccccc1NC(=O)c1cccc(NC(=O)c2ccco2)c1,-3.1,-3,-77,124,96,i,1.1
Clc1ccc2nc(CSc3nncn3-c3ccccc3)cn2c1,-0.9,-5,3,73,99,i,1.2
Cc1nn(C)cc1CNC(=O)Nc1ccc(Cl)cc1,-1.5,-6,38,90,80,i,0.92
CCOc1ccccc1CN(Cc1ccco1)S(=O)(=O)c1ccc(-n2cnnn2)c(OC)c1,-0.5,-3,9,138,112,i,0.88
COc1ccccc1NC(=O)c1nn(-c2ccc(OC(F)(F)F)cc2)ccc1=O,-1.4,-4,-10,103,105,i,0.72
O=C(Nc1cc([N+](=O)[O-])ccc1N1CCCC1)c1ccccc1,x,-2,x,x,103,i,0.96
Cn1cccc1/C=N/NC(=O)Cc1ccccc1,x,x,x,x,96,i,0.91
COc1ccccc1Cn1c(CCCO)nc2ccccc21,-4.8&-2.5,1,-14,65,95,i,0.9
CCC(C)n1ncn(-c2ccc(N3CCN(c4ccc(OC)cc4)CC3)cc2)c1=O (centres undefined),0.0,9,3,110,93,i,0.76
CNc1cc(-n2nc(C)cc2-c2ccccc2)ncn1,-1.7,-4,-3,135,91,i,1.1
COc1cc(C(=O)NCc2ccc(C)cc2)ccc1OC(F)F,-1.3,3,15,72,45,i,1

# By substructure, the entries above containing sulfur
SMILES,GALR2 ag,PKD1 kinase inh,Insulin prom inh,Insulin prom inh cell count,RGS16-Gao HTS,HSV augment,HSV augment primary fold
COc1cccc(/C=N/n2c(N)c(S(=O)(=O)c3cccs3)c3nc4ccccc4nc32)c1OC,0.7,-10,2,46,39,i,0.65
Clc1ccc2nc(CSc3nncn3-c3ccccc3)cn2c1,-0.9,-5,3,73,99,i,1.2
CCOc1ccccc1CN(Cc1ccco1)S(=O)(=O)c1ccc(-n2cnnn2)c(OC)c1,-0.5,-3,9,138,112,i,0.88

# Continuation:
SMILES,GALR2 ag,PKD1 kinase inh,Insulin prom inh,Insulin prom inh cell count,RGS16-Gao HTS,HSV augment,HSV augment primary fold
Fc1ccc(CNC(=S)Nc2cccc(Cl)c2)cc1,-1.1,-6,30,80,111,i,1.1
CCCCC(=O)C1=C(N2CCCC2)CC(C)(C)CC1=O,-1.9,2,28,87,104,i,0.91
COc1ccc(OC)c(Cc2nnc(CCC(=O)NC3CCCC3)o2)c1,x,5,x,x,103,i,1.3
CCCN1CCN(C(=S)Nc2sc(CC)cc2C(=O)OC)CC1,x,-5,x,x,98,i,1.1
Brc1ccc(-c2cn3cccnc3n2)cc1,-1.4,-5,36,135,115,i,1.1
O=C(NC12CC3CC(CC(C3)C1)C2)N1CCN(C2CCCCC2)CC1,x,-5,x,x,103,i,0.9
CN1C(=O)c2ccccc2C(C(=O)NCCCN2CCCC2=O)C1c1c[nH]c2ccccc12 (centres undefined),-0.5,1,29,81,102,i,1.1
COc1ccc(C(=O)COC(=O)CCN2C(=O)[C@@H]3[C@H](C2=O)[C@@H]2C[C@H]3C(Br)C2Br)cc1 (some centres undefined),-2.4,-13,x,x,118,i,1.1
Cc1ccccc1NC(=O)CSC(N)=O,-1.9,-17,x,x,92,i,0.96
C/C(=N\N=c1/sc2ccccc2n1C)c1ccc(N2CCOCC2)cc1,x,-1,-20,86,100,i,0.85
O=C(COc1ccccc1C(=O)c1cnn(-c2ccccc2)c1)Nc1ccccc1,-0.1,3,x,x,64,i,0.93
C=C(c1ccc(O)cc1)c1ccc(O)cc1,-0.2,-11,-43,200,97,i,0.89
COc1cc(C2C(C#N)=C(N)Oc3n[nH]c(C)c32)ccc1OC(=O)c1ccccc1 (centres undefined),-0.3,-2,26,110,98,i,1
C=C1SC(Nc2c(C)cc(C)cc2C)=NC12CCCCC2,x,x,x,x,110,i,0.97
O=C(CN1C(=O)NC2(CCCCCC2)C1=O)Nc1ccc(S(=O)(=O)N2CCOCC2)cc1,-2.1,-1,3,89,101,i,0.86
S=C(NCc1ccco1)N1CCN(c2ccccc2Cl)CC1,x,-3,x,x,99,i,0.92
COc1ccc(C(CC(=O)O)NS(=O)(=O)c2ccc(C)cc2)cc1 (centres undefined),-0.9,5,-38,44,97,i,1.3
CN(C)/C=N/c1cc(=O)n(C)c(=O)n1Cc1ccccc1,-1.3,-3,23,132,105,i,0.96
COCCN(CCOC)C(=O)c1ccc(SCc2ccc(C)cc2)c([N+](=O)[O-])c1,x,7,42,205,105,i,0.85
CCOCCCNC(=O)C1CCC(CNS(=O)(=O)c2ccc(F)cc2)CC1 (centres undefined),-3.3,13,x,x,107,i,1
Cc1ccc(-c2nnc3sc(CCc4ccccc4)nn23)cc1,-1.7,-3,0,85,101,i,0.83
O=C1S/C(=C\c2ccc(O)c([N+](=O)[O-])c2)C(=O)N1c1ccccc1Cl,x,3,x,x,99,i,0.9
Cc1cc(C2=NNC(=NC3CC3)SC2)c(C)n1Cc1ccco1,-0.8,4,x,x,115,i,1.2
O=C(Cc1ccccc1)NCC(=O)OCC(=O)c1ccc([N+](=O)[O-])cc1,-0.4,3,-24,73,97,i,0.97
Cc1ccc(S(=O)(=O)c2ccc(Cl)cc2)cc1S(=O)(=O)N(C)CC(=O)O,-1.5,-6,x,x,87,i,1.1
C=C1N(c2ccccc2)C(=O)OC1(C)C,-0.5,-7,x,x,109,i,0.93
Cc1ccc(C(=O)N(Cc2nc(-c3ccc(C)cc3)no2)C(C)C)cc1,-3.5,-2,x,x,101,i,1
Nc1c2c(nc3ccccc13)N(C1CCCCC1)CC2,x,x,x,x,89,i,0.92
Cc1ccc(C(=O)Nc2ccccc2C(=O)N2CCCC2)cc1[N+](=O)[O-],-0.6,-9,-46,73,91,i,0.98
NC(=O)c1ncc(C(F)(F)F)cc1Oc1cccc(F)c1,-2.5,-9,39,135,104,i,0.89
Cc1ccc(SCc2nc3ccccc3[nH]2)cc1,-5.6,3,x,x,99,i,1.2
CC(=O)OC1CC(C)(C)N(OC(=O)c2ccccc2)C(C)(C)C1,0.3,0,-244,61,101,i,1
Cc1nc(SCN2C(=O)c3ccccc3C2=O)n[nH]1,-1.2,0,-2,107,108,i,0.71
CCC(C)NC(=O)c1cc(Sc2nnc(C)s2)nc2ccccc12 (centres undefined),1.0,7,-13,111,94,i,0.91
CCOC(=O)c1c(C)[nH]c(C)c1C(=O)COC(=O)c1cccc(S(=O)(=O)NC)c1,-1.2,3,x,x,107,i,0.92
O=C(CNC(=O)c1ccco1)OCc1ccc(C(=O)Oc2ccccc2)cc1,-1.4,-4,-12,56,102,i,0.95
COCCn1cc(C(=O)N2CCC(C)CC2)c2c3ccccc3n(C)c2c1=O,-1.5,0,x,x,109,i,1.4
Cc1cccc(NC(=O)C(C)N2C(=O)C3C4CC(C(Br)C4Br)C3C2=O)c1 (centres undefined),0.2,-1,x,x,107,i,1
CS(=O)(=O)NCCSCc1ccc(Cl)cc1,-1.8,2,x,x,83,i,1
CCCC1=NN2C(=N)/C(=C\c3cc(C)n(-c4cc(C)cc(C)c4)c3C)C(=O)N=C2S1,-0.2,-3,3,45,104,i,1.3
Cc1cc(C)c(C#N)c(SCc2nc3ccccc3c(=O)[nH]2)n1,x,3,x,x,97,i,1
c1ccc(CN(Cc2ccco2)C(c2ccncc2)c2nnnn2C2CCCC2)cc1 (centres undefined),-0.5,1,x,x,93,i,1.1
CC1=CC(=C(C#N)c2nc3ccccc3s2)C=C(C)N1Cc1ccco1,-1.5,8,21,67,99,i,0.88
CCN(C(=O)c1cc2c(=O)[nH]c3ccc(C)cc3c2s1)c1ccccc1C,x,x,x,x,103,i,0.92
CCOc1ccc(C)cc1S(=O)(=O)Nc1cccnc1,-2.0,0,37,70,x,i,1
Cc1nc2ccccc2c(=O)n1/N=C/C=C/c1ccccc1,x,x,x,x,103,i,0.86
COC(=O)c1cc(NC2c3ccccc3C(=O)N2c2ccc(Cl)cn2)cc(C(=O)OC)c1 (centres undefined),-2.1,-11,x,x,104,i,0.88
C=CCn1c(C)c(C(C)=O)c(N2CCCC2)nc1=S,-1.2,-12,-19,99,97,i,1
Cc1ccc(C(=O)NCCN(C)C)c(C)c1,-0.6,-3,-14,190,101,i,0.94
COC(=O)c1[nH]c(C)c(/C(O)=C2\C(=O)C(=O)N(CCN(C)C)C2c2ccc(C)o2)c1C (centres undefined),-0.6,-7,x,x,103,i,0.96
CN(C(=O)c1ccccc1C(=O)c1ccccc1)C1CCS(=O)(=O)C1 (centres undefined),-2.9,-12,x,x,102,i,0.74
Cc1cccc(NC(=O)COC(=O)c2cc3ccccc3oc2=O)c1,x,6,x,x,106,i,0.96
CN1CC(=O)N/C1=N\C(=O)Nc1ccc2c(c1)N(C)C(=O)CS2,-0.7,-5,17,98,75,i,1
CSc1nc(=S)cc(C)[nH]1,x,x,x,x,90,i,1.2
CCC(C)(C)NC(=O)c1ccc(Sc2nncn2C)c([N+](=O)[O-])c1,-0.3,1,28,55,111,i,1
Cc1cccc2c1NC(=O)C21N2CCCC2C(C(=O)c2ccc3ccccc3c2)C12C(=O)Nc1ccccc12 (centres undefined),x,x,x,x,111,i,0.98
COC1(OC)N=C(NC(=O)Nc2ccccc2)C2(C#N)C(c3ccccc3)C12C#N (centres undefined),-1.4,9,x,x,73,i,1.1
CCCOc1ccc(C(C)=O)cc1CSc1nc(O)cc(=O)[nH]1,-1.6,1,23,129,99,u,x
COC(=O)CC(NS(=O)(=O)c1cccs1)c1ccccc1Cl (centres undefined),-4.0,2,x,x,104,i,0.79
N#C/C(=C/c1ccc([N+](=O)[O-])cc1)C(N)=O,x,-1,43,98,118,i,0.9

# Continued.
SMILES,GALR2 ag,PKD1 kinase inh,Insulin prom inh,Insulin prom inh cell count,RGS16-Gao HTS,HSV augment,HSV augment primary fold
O=C(c1ccc2c(c1)OCO2)N(Cc1cccs1)C1(C(=O)NC2CCCCC2)CCCCC1,-1.3,-2,-57,186,102,i,1
COc1cccc(N2CCN(C(=O)CCCCCNc3nc(=S)[nH]c4ccccc34)CC2)c1,x,15,-6,105,100,i,0.89
O=C(COc1cccc2cccnc12)Nc1ccccc1N1CCOCC1,x,1,-64,68,102,i,1
CC(/C=C/c1ccc2c(c1)OCO2)=N/NC(=O)c1ccc(C)nc1,-0.7,-5,x,x,105,i,0.81
CCOC(=O)CCSc1nc(C)cc(C(F)(F)F)c1C#N,-1.9,-2,-356,107,101,u,x
CC/C(=N\NC(=O)CSCc1ccccc1Cl)c1ccc2c(c1)OCCO2,-0.4,-7,x,x,148,i,1
CCCOc1ccc(CNC(=S)N/N=C/c2ccc([N+](=O)[O-])cc2)cc1,-3.2,0,43,123,96,i,0.88
CCN(CC)S(=O)(=O)c1cc(C(=O)Nc2ccccc2C(=O)O)ccc1OC,-1.8,5,31,100,103,i,1
COC(=O)CNC(=O)COC(=O)c1cc(Cl)cc(Cl)c1N,0.6,0,-30,85,100,i,1.1
CC1CCN(C(=O)CNC(=O)Cn2ccc3ccccc3c2=O)CC1,-1.9,4,x,x,114,i,0.89
O=C(NCCN1CCN(c2ccccc2F)CC1)C1c2ccccc2C(=O)N2CCc3ccccc3C12 (centres undefined),-0.3,-8,x,x,102,i,0.95
N#C/C(=C(/O)C(Cl)c1ccccc1)c1nc2ccccc2s1 (centres undefined),-1.1,-10,3,114,113,i,0.61
Cc1nc(NC(=O)CC(C)C)sc1-c1csc(Nc2ccc(Cl)cc2Cl)n1,-0.7,11,-13,34,97,i,0.93
Cc1nnc(SCC(=O)Nc2ccc(N(C)C)cc2)n(N)c1=O,x,-7,-17,143,111,i,1
CCC(C)NC(=O)Cn1c(=O)n(CCCC(=O)NCc2ccccc2Cl)c(=O)c2ccccc21 (centres undefined),-1.6,-1,-64,91,93,i,0.92
O=C(O)/C=C/c1cn(-c2ccccc2)nc1-c1cc2ccccc2o1,x,x,x,x,101,i,0.89
O=[N+]([O-])c1ccc(Cl)cc1NCCCN1CCOCC1,-0.1,-11,11,77,109,i,0.96
C=CCn1c(SCC(=O)Nc2ccccc2-c2ccccc2)nc2cc(C(=O)O)ccc2c1=O,x,0,x,x,114,i,0.95
